Screens: PubChem BioAssay, Broad Institute
rRNA inh HTS: inhibitors of bacterial rRNA selective over humanized ribosomes; E. coli WT GFP vs humanized-ribosome RFP mutants, fluorescence, 24 h; hits give low values; DMSO median 0, no signal -100; GFP signal change (wild-type ribosome), % (no concentration beside the values); actives 1.6% (n = 350,000);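 active means significant combined selectivity score with lowered wild-type GFP, culture density cut under 30%, mutant RFP and density less affected; inactive means any of these conditions unmet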; further: one replicate is shown; some compounds called inactive have numbers as strong as hits
rRNA inh HTS OD600: further read-out of rRNA inh HTS, marked with its call; OD600 change, %; measured here: OD600 growth;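 optical density of the mix in the first replicate; 0 = DMSO median and -100 = no signal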
rRNA inh HTS RFP: also measured in rRNA inh HTS; calls as there; RFP signal change, %; measured here: RFP humanized mutant strains;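 first replicate; 0 = DMSO median and -100 = no signal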
* = called active by the depositor; & = joins results of further samples. Only part of the results is shown; the hit share may differ from the screen's.

#1 C[C@H]1CN([C@@H](C)CO)C(=O)c2cccc(NC(=O)Nc3ccc4c(c3)OCO4)c2O[C@@H]1CN(C)Cc1ccc(-c2ccccc2)cc1
#2 CCC(=O)N1[C@H](CO)[C@H](c2ccccc2)C12CN(C(=O)c1ccncc1)C2
#3 COc1ccc(C2CC(=O)C(c3ccc(C)cc3)=CN2Cc2ccccc2)cc1 (stereo unspecified)
#4 COCC(=O)N1[C@@H](CO)[C@@H]2c3ccccc3N(C(=O)c3cccnc3)C[C@@H]21
#5 O=C([C@H]1[C@H](CO)[C@H]2Cn3c(ccc(-c4ccccc4F)c3=O)[C@@H]1N2C(=O)C1CC1)N1CCCCC1
#6 CCC(=O)N1C[C@@H](C)[C@@H](OC)CN(C)C(=O)c2ccc(NC(=O)C3CCOCC3)cc2OC[C@@H]1C
#7 CC(C)CC#Cc1ccc2c(c1)O[C@@H](CN(C)C(=O)CN(C)C)[C@@H](C)CN([C@@H](C)CO)S2(=O)=O
#8 C[C@@H]1CCCCO[C@H](CN(C)Cc2ccc(Cl)c(Cl)c2)[C@H](C)CN([C@@H](C)CO)C(=O)c2cc(NS(=O)(=O)c3ccc(F)cc3)ccc2O1

assay / entry	1	2	3	4	5	6	7	8
rRNA inh HTS	-1	3	-1	4	1	0	6	-4
rRNA inh HTS OD600	0	19	-5	12	4	2	4	-8
rRNA inh HTS RFP	-0.6	-0.2	2.2	0.3	-0.7	-3.3	2.8	3.8

#9 C[C@H]1CN([C@@H](C)CO)C(=O)c2cc(NC(=O)Nc3ccc(F)cc3)ccc2O[C@@H]1CN(C)S(=O)(=O)c1cccs1
#10 CO[C@@H]1CN(C)C(=O)c2ccc(NC(C)=O)cc2OC[C@H](C)N(C(=O)CN2CCOCC2)C[C@H]1C
#11 Cc1ccc(S(=O)(=O)CCC(=O)OCCOc2ccc(Br)cc2)cc1
#12 O=C(C[C@@H]1C=C[C@@H](NC(=O)C2CCOCC2)[C@@H](CO)O1)Nc1nccs1
#13 Cc1noc(C)c1S(=O)(=O)Nc1ccc2c(c1)C(=O)N([C@H](C)CO)C[C@H](C)[C@@H](CN(C)Cc1ccc(C(=O)O)cc1)OCCCC[C@@H](C)O2
#14 COc1ccc(NC(=O)C2Cc3c(-c4ccc5c(c4)OCO5)ccnc3O2)cc1 (stereo unspecified)
#15 C[C@@H]1CCCCO[C@@H](CN(C)C(=O)CCC(F)(F)F)[C@@H](C)CN([C@H](C)CO)C(=O)c2cc(NC(=O)NC3CCCCC3)ccc2O1
#16 C[C@H]1CN([C@@H](C)CO)C(=O)c2cc(-c3ccncc3)cnc2O[C@H]1CN(C)C(=O)C1CC1

assay / entry	9	10	11	12	13	14	15	16
rRNA inh HTS	0	0	-4	1	3	-5	3	4
rRNA inh HTS OD600	-10	8	-10	5	12	-9	1	7
rRNA inh HTS RFP	8.1	0.5	2.8	-0.9	-0.4	1.9	-1.2	-2.9

#17 CCCC(=O)Nc1ccc2c(c1)C(=O)N(C)C[C@H](OC)[C@@H](C)CN(C(=O)CN(C)C)[C@@H](C)CO2
#18 CO[C@H]1CN(C)C(=O)c2cc(NS(=O)(=O)c3ccccc3C)ccc2OC[C@H](C)N(C)C[C@H]1C
#19 C[C@@H]1CN([C@@H](C)CO)C(=O)c2cccc(NC(=O)Nc3ccccc3)c2O[C@H]1CN(C)Cc1ccc(-c2ccccc2)cc1
#20 C[C@H](CO)N1C[C@H](C)[C@H](CN(C)Cc2ccccn2)Oc2ncc(C3=CCCCC3)cc2C1=O
#21 O=C1N[C@@H](Cc2ccccc2)COCn2nncc2CC[C@@H]1Cc1ccccc1
#22 C[C@@H]1CN([C@H](C)CO)C(=O)c2cc(NC(=O)Cc3ccccc3)ccc2O[C@@H](C)CCCCO[C@H]1CN(C)Cc1ccc(C(=O)O)cc1
#23 O=C(NCC1CC1)[C@@H]1[C@@H](CO)[C@@H]2Cn3c(ccc(/C=C/c4ccccc4)c3=O)[C@H]1N2C(=O)C1CC1
#24 C[C@H](CO)N1C[C@H](C)[C@@H](CN(C)S(=O)(=O)c2ccc(Cl)cc2)Oc2c(NC(=O)c3cnccn3)cccc2C1=O

assay / entry	17	18	19	20	21	22	23	24
rRNA inh HTS	3	2	1	1	-1	2	-5	-3
rRNA inh HTS OD600	-2	1	6	-2	-4	1	-8	8
rRNA inh HTS RFP	-1.6	-0.3	-1.4	2.3	2.6	-4.8	1.3	2.6

3 compounds out of the list, ordered by number of heavy atoms, smallest number first:
#18 CO[C@H]1CN(C)C(=O)c2cc(NS(=O)(=O)c3ccccc3C)ccc2OC[C@H](C)N(C)C[C@H]1C
#19 C[C@@H]1CN([C@@H](C)CO)C(=O)c2cccc(NC(=O)Nc3ccccc3)c2O[C@H]1CN(C)Cc1ccc(-c2ccccc2)cc1
#22 C[C@@H]1CN([C@H](C)CO)C(=O)c2cc(NC(=O)Cc3ccccc3)ccc2O[C@@H](C)CCCCO[C@H]1CN(C)Cc1ccc(C(=O)O)cc1

assay / entry	18	19	22
rRNA inh HTS	2	1	2
rRNA inh HTS OD600	1	6	1
rRNA inh HTS RFP	-0.3	-1.4	-4.8

(continued)
#25 c1ncc(-c2ccc(C3[C@@H]4CN(Cc5cocn5)C[C@H]3N4)cc2)cn1 (stereo partly specified)
#26 COc1ccc(-c2cnc3c(NC(C)=O)cc(-c4cccc(C(=O)N(C)C)c4)cn23)cc1OC
#27 O=C(NC1CCCC1)[C@@H]1[C@@H](CO)[C@@H]2Cn3c(ccc(C4=CCCC4)c3=O)[C@H]1N2CC1CC1
#28 C[C@@H]1CN([C@@H](C)CO)S(=O)(=O)c2ccc(Br)cc2O[C@@H]1CN(C)C(=O)c1cnccn1
#29 CCc1nc2ccc(C(=O)NCCNC(C)=O)cn2c1N(CCC(C)C)CCN(C)C
#30 CC(C)[C@@H]1C(=O)N[C@@H](c2ccc3c(c2)OCO3)C/C=C/C[C@H](C)Oc2ccccc2C(=O)N1C
#31 COc1cccc(S(=O)(=O)N(C)C[C@@H]2OCc3cn(nn3)CCCC(=O)N([C@H](C)CO)C[C@@H]2C)c1
#32 CCCNC(=O)C[C@@H]1CC[C@@H]2[C@@H](COc3ccc(NS(=O)(=O)c4ccccc4C)cc3C(=O)N2C)O1

assay / entry	25	26	27	28	29	30	31	32
rRNA inh HTS	5	6	0	2	3	-3	-1	-1
rRNA inh HTS OD600	14	8	5	3	0	-28	1	2
rRNA inh HTS RFP	0.3	-3.8	-3.4	-5.9	-1.1	8.5	0.1	-0.5

#33 COc1ccc(S(=O)(=O)Nc2ccc3c(c2)CC(=O)N([C@H](C)CO)C[C@@H](C)[C@H](CN(C)Cc2ccncc2)O3)cc1
#34 Cc1ccc(S(=O)(=O)Nc2cccc3c2O[C@H](CN(C)Cc2ccc4c(c2)OCO4)[C@@H](C)CN([C@H](C)CO)C3=O)cc1
#35 C[C@@H]1CCCCO[C@@H](CN(C)Cc2ccc(C(F)(F)F)cc2)[C@H](C)CN([C@@H](C)CO)C(=O)c2cc(NS(=O)(=O)c3ccc(Cl)cc3)ccc2O1
#36 C[C@@H]1CN([C@H](C)CO)C(=O)c2cc(-c3ccccc3F)cnc2O[C@@H]1CN(C)C(=O)NC1CCCC1
#37 O=C(Nc1ccccc1Cl)c1cc(C2CCCCN2C(=O)c2ccccc2)on1 (stereo unspecified)
#38 C[C@@H]1CN([C@H](C)CO)C(=O)CCCn2cc(nn2)CO[C@H]1CN(C)C(=O)Nc1ccccc1C(F)(F)F
#39 CN(C)C(=O)c1ccc(-c2ccc([C@@H]3[C@@H](CO)N4CCCCN(CCC(F)(F)F)C[C@H]34)cc2)cc1
#40 COc1ccc(NC(=O)N2CC(=O)N3[C@H](CO)[C@@H](c4ccc(-c5ccc(C)cc5)cc4)[C@@H]3C2)cc1

assay / entry	33	34	35	36	37	38	39	40
rRNA inh HTS	1	0	-2	2	-2	-2&-2	0	-5
rRNA inh HTS OD600	9	2	-4	3	-13	10&0	-4	-38
rRNA inh HTS RFP	1.6	-0.2	4.2	-2.4	-2.1	-2.2&-0.5	-2.6	25

#41 C[C@@H]1CN([C@@H](C)CO)C(=O)Cc2cc(NC(=O)c3ccncc3)ccc2O[C@H]1CN(C)C(=O)NC1CCCCC1
#42 C[C@@H]1CN([C@H](C)CO)C(=O)c2c(c3ccccc3n2C)-c2ccccc2CO[C@H]1CN(C)C
#43 C[C@@H]1CN([C@H](C)CO)C(=O)c2cc(NS(=O)(=O)c3cccs3)ccc2O[C@@H](C)CCCCO[C@@H]1CN(C)C(=O)CCC(F)(F)F
#44 CC(C)NC(=O)Nc1cccc2c1O[C@H](CN(C)CC1CC1)[C@@H](C)CN([C@@H](C)CO)C2=O
#45 CO[C@H]1CN(C)C(=O)c2ccc(NS(=O)(=O)c3ccccc3)cc2OC[C@H](C)N(C(=O)NC(C)C)C[C@H]1C
#46 C/C=C/c1ccc2c(c1)O[C@@H](CN(C)Cc1ccc(C(=O)O)cc1)[C@@H](C)CN([C@@H](C)CO)S2(=O)=O
#47 CC(=O)Nc1ccc(-c2ccnc3c2CC(C)(C(=O)NCc2ccncc2)O3)cc1 (stereo unspecified)
#48 Cc1ccc2cccc(OC(=O)c3cccnc3Oc3ccccc3)c2n1

assay / entry	41	42	43	44	45	46	47	48
rRNA inh HTS	4	2	2	4	-2	2	8	9
rRNA inh HTS OD600	-2	-1	1	1	1	3	18	8
rRNA inh HTS RFP	-0.5	1.7	0.2	-0.1	1.2	-0.8	-3.2	-2.4

#49 CCCNC(=O)[C@@H]1[C@@H](CO)[C@@H]2Cn3c(ccc(C4=CCCC4)c3=O)[C@H]1N2C(C)=O
#50 C[C@H](CO)N1C[C@H](C)[C@H](CN(C)S(=O)(=O)c2cn(C)cn2)Oc2ccc(N(C)C)cc2C1=O
#51 CC1(C(=O)Nc2cccc3cccnc23)CCN1C(=O)Cc1ccc(Cl)cc1Cl (stereo unspecified)
#52 COc1ccc(N(CC(=O)Nc2ccc(S(=O)(=O)N3CCOCC3)cc2)S(C)(=O)=O)cc1OC
#53 C[C@@H]1CCCCO[C@@H](CN(C)C(=O)Nc2ccccc2)[C@H](C)CN([C@H](C)CO)C(=O)c2cc(NC(=O)Cc3ccccc3)ccc2O1
#54 C[C@@H]1CN([C@H](C)CO)C(=O)Cc2cc(NS(=O)(=O)c3ccc(Cl)cc3)ccc2O[C@@H]1CN(C)S(=O)(=O)c1cn(C)cn1
#55 COc1ccc(-c2cn(CC[C@@H]3CC[C@@H](NC(=O)NC(C)C)[C@H](CO)O3)nn2)cc1
#56 Cc1noc(C)c1S(=O)(=O)Nc1cccc2c1O[C@H](CN(C)C(=O)NC(C)C)[C@H](C)CN([C@@H](C)CO)C2=O

assay / entry	49	50	51	52	53	54	55	56
rRNA inh HTS	5	1	-18	7	2	3	0	4
rRNA inh HTS OD600	2	1	-51	11	-7	10	1	-2
rRNA inh HTS RFP	-5.4	-1.6	8.3	-0.3	-1.4	2.3	-1.2	1.8

#57 Cc1noc(C)c1NC(=O)N(C)C[C@H]1OCCCC[C@@H](C)Oc2ccc(NC(=O)Nc3ccccc3)cc2C(=O)N([C@H](C)CO)C[C@@H]1C
#58 CN1CCCCC(NC(=O)C(C)(C)C)C1=O (stereo unspecified)
#59 COCc1cn(CC[C@H]2CC[C@@H](NC(=O)c3ccccc3)[C@H](CO)O2)nn1
#60 CO[C@@H]1CN(C)C(=O)c2ccc(NC(=O)c3cc(C)on3)cc2OC[C@@H](C)N(S(=O)(=O)c2cccc(C)c2)C[C@H]1C
#61 COc1cc(Br)cc(C(=O)N2CCc3ccccc32)c1OC
#62 CNC[C@H]1Oc2c(cccc2N(C)C)C(=O)N([C@@H](C)CO)C[C@H]1C
#63 CCC(=O)N1CC[C@H]2[C@@H]1c1cc(-c3cccc(F)c3)ccc1N(C)[C@H]2CO
#64 CCC(=O)N(c1nnc(SC(C)C(=O)Nc2ccc(N3CCOCC3)cc2)s1)C1CC1 (stereo unspecified)

assay / entry	57	58	59	60	61	62	63	64
rRNA inh HTS	5	8	2	-10	-40	3	-12	5
rRNA inh HTS OD600	15	10	13	-8	-64	15	-48	18
rRNA inh HTS RFP	1.5	1.7	-3.1	5.7	-10	-1.5	-5.7	-1.2

#65 O=C(Cc1cccnc1)N[C@@H]1CC[C@@H](CCn2cc(-c3ccccc3F)nn2)O[C@H]1CO
#66 c1cc(-c2ccc3nncn3c2)ccc1CN1CCOCC1
#67 C[C@H](CO)N1C[C@H](C)[C@H](CN(C)S(=O)(=O)c2cn(C)cn2)Oc2ncc(C#CCN(C)C)cc2C1=O
#68 C[C@H]1CN([C@@H](C)CO)C(=O)c2ccccc2-c2ccccc2CO[C@@H]1CN(C)Cc1cccc(F)c1
#69 C[C@@H](O)C#Cc1cnc2c(c1)C(=O)N([C@@H](C)CO)C[C@H](C)[C@@H](CN(C)Cc1cncnc1)O2

assay / entry	65	66	67	68	69
rRNA inh HTS	0	5	5	-2	-1
rRNA inh HTS OD600	2	9	4	-8	-5
rRNA inh HTS RFP	-2.7	-3.7	-1.9	-0.2	-2.4
